Compound activity (PubChem)
VDR inh – Inhibitors of the vitamin D receptor (VDR): qHTS. Vitamin D3 receptor (Homo sapiens), P11473. VDR-SRC2-3 peptide fluorescence polarization, 2 h. Potency, µM, for the others: max response, negative = inhibition, hits mostly inhibitors. 400,000 tested, 0.93% active. AID 504847, 2011; active = well fitted inhibition curve with a large enough effect; inconclusive = small, poorly fitted or top-dose-only effect, or another doubt; inactive = no such curve, though single readings can be large or run the other way; also: series mostly up to about 120 µM
Target sequence (P11473 whole entry, looked up): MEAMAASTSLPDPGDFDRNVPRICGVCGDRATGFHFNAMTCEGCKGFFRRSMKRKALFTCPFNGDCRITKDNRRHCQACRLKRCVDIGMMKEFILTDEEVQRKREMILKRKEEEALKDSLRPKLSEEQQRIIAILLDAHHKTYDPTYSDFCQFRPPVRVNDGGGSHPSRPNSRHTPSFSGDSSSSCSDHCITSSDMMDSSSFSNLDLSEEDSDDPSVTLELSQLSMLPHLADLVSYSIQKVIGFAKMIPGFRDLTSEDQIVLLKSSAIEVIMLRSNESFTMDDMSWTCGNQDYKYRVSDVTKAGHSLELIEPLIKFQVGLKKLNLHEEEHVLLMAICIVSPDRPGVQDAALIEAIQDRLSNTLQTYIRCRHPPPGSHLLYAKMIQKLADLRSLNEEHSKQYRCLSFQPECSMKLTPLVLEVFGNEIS
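Inhibition of the VDR/SRC2-3 peptide interaction is quantified by fluorescence polarization. Compounds (23 nl, pintool) incubate with the reagents for 2 hours at ambient room temperature.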
The depositor's hits bear a star; ? = inconclusive; & = joins results of further samples; [ ] = dose if it differs, or a comment. % is scaled to controls: 0 for no effect and ±100 for the full control effect; potency is read from the fitted curve at half-maximal effect. This is a subset; the hit share may differ from the screen's.

COc1cccc(N2CCN(C(=O)c3cc4ccc(OC)cc4[nH]3)CC2)c1
  VDR inh: 0%
CCCC(O)c1nc2ccccc2n1CCCCOc1ccc(OC)cc1 (centres undefined)
  VDR inh: 4%
COc1ccccc1NC(=O)/C(=C\c1cccs1)NC(=O)c1ccco1
  VDR inh: -14%
Cn1c(=O)c2c(SCC(=O)NCC3CCCO3)nc(-c3ccccc3Cl)nc2n(C)c1=O (centres undefined)
  VDR inh: -4%
O=C(N/N=C/c1ccccc1O)C1CCCC1
  VDR inh: -2%
COc1ccc2c(c1)c(C(=O)CN1CCN(C(=O)c3ccco3)CC1)c(C)n2C
  VDR inh: 30%[activator]
CCN(CC)CCCn1c(=S)[nH]c2cc(OC)c(OC)cc2c1=O
  VDR inh: 12%
Cc1ccc(S(=O)(=O)N(C)c2ccc3ccccc3c2)cc1
  VDR inh: 5%
CC(C)CC1Nc2ncnc(N3CCOCC3)c2N(Cc2ccc(Br)cc2)C1=O (centres undefined)
  VDR inh: -10%
CCn1c2ccccc2c2nnc(SCC(=O)Nc3ccccc3OC)nc21
  VDR inh: 4%
CCCCC/C=C\C/C=C\CCCCCCCCCC(=O)NCCCC(=O)O
  VDR inh: -1%
O=S(=O)(c1ccc(NCCc2c[nH]c3ccccc23)nc1)N1CCOCC1
  VDR inh: 1%
O=C(Nc1ccc([N+](=O)[O-])cn1)c1cccnc1
  VDR inh: -7%
Cc1ccc(C(=O)NCc2ccc3c(c2)OCO3)cc1C
  VDR inh: -2%
CSC1CCCCC1(O)CSc1nc2ccccc2o1 (centres undefined)
  VDR inh: -3%
CC(C)C(=O)N1CCc2cc(-c3csc(N)n3)ccc21
  VDR inh: -19%
CCCN(C(=O)CSc1cc(-c2ccccc2)c2ccc(OC)cc2n1)C1CCS(=O)(=O)C1 (centres undefined)
  VDR inh: 3%
C/C(=N\NC(=S)NCc1ccccc1)c1cccs1
  VDR inh: -4%
Cc1noc(C)c1C(=O)Nc1ccc(Cl)cc1C(F)(F)F
  VDR inh: 4%
Cc1ccccc1NC(=O)c1cccc(S(=O)(=O)Oc2ccc([N+](=O)[O-])cc2)c1
  VDR inh: 21%
COc1ccc(CCNC(=O)C2CCN(S(C)(=O)=O)CC2)cc1
  VDR inh: -11%
NC(=O)C1C2C=CC(C2)C1c1ccccc1 (centres undefined)
  VDR inh: 1%
O=C(O)CCCNc1cc(N2CCN(C3CCCCC3)CC2)c2noc3c2c1C(=O)c1ccccc1-3
  VDR inh: ?
Nc1cc(S(=O)(=O)Nc2ccc(Br)cc2)ccc1Cl
  VDR inh: -2%
COc1ccccc1CCc1nnc(CCC(=O)N(C)Cc2cccc3cnccc23)o1
  VDR inh: -6%

Cc1nc2scc(C)n2c(=O)c1S(=O)(=O)N1CCN(c2ccccc2)CC1
  VDR inh: 5%
COc1ccc(CNC(=O)CN(C)S(=O)(=O)c2ccc3c(c2)c(=O)n(C)c(=O)n3C)cc1
  VDR inh: -14%&8%
CCOc1ccc(NC(=O)CSc2oc(-c3cccs3)nc2S(=O)(=O)c2ccc(C)cc2)cc1
  VDR inh: -2%
CCN(CC)S(=O)(=O)c1cccc(NC(=O)C2CC(=O)N(c3ccc4c(c3)OCCO4)C2)c1 (centres undefined)
  VDR inh: 9%
O=C(NC(=S)N1CCCC1)c1ccc(Cl)cc1Cl
  VDR inh: 3%
COc1ccc(C(CNC(=O)c2oc3ccc(Cl)cc3c2C)N2CCCCC2)cc1 (centres undefined)
  VDR inh: -2%&15%
Cc1ccc2oc(=O)c3cc(C(=O)NCCc4ccc(Cl)cc4)sc3c2c1
  VDR inh: -10%
Cc1ccc2cc(CCNC(=O)c3ccc(S(=O)(=O)N4CCCCC4)cc3)c(=O)[nH]c2c1
  VDR inh: -11%
COC(=O)C1=C(C)NC(=O)/C1=C\c1ccco1
  VDR inh: 7%
Cc1cc(S(=O)(=O)Nc2ccc(F)cc2)c(C)s1
  VDR inh: 5%
CCCC(CCC)C(=O)OC1C[C@H]2CC[C@@H](C1)[N+]2(C)C (some centres undefined)
  VDR inh: -13%&-2%
COc1ccccc1NC(=O)CSc1nncn1-c1cccnc1
  VDR inh: 8%
CC(C)COC(=O)CCNc1n[nH]c(=O)[nH]c1=O
  VDR inh: 17%
COc1ccc(S(=O)(=O)NCc2ccncc2)cc1NC(=O)c1ccccc1C
  VDR inh: -3%
CC(=O)N[C@H]1[C@H](O[C@@H]2c3ccc(c(Cl)c3)Oc3cc4cc(c3O[C@@H]3O[C@H](CO)[C@@H](O)[C@H](O)C3C)Oc3ccc(cc3Cl)C[C@H]3NC(=O)[C@@H](N)c5ccc(O)c(c5)Oc5cc(O)cc(c5)[C@H](NC3=O)C(=O)N[C@H]4C(=O)N[C@H]3C(=O)N[C@@H]2C(=O)N[C@@H](C(=O)O)c2cc(O)cc(O[C@H]4O[C@H](CO)[C@@H](O)C(O)[C@@H]4O)c2-c2cc3ccc2O)O[C@H](CO)[C@@H](O)[C@@H]1O (some centres undefined)
  VDR inh: -7%
Cc1csc(NC(=O)CCCc2cccs2)n1
  VDR inh: -8%
CC(C)c1nc(SCC(=O)N2CCCc3ccccc32)c2c(=O)n(C)c(=O)n(C)c2n1
  VDR inh: -5%
CCc1ccccc1N(C)S(=O)(=O)c1ccc2[nH]cc(C(=O)O)c(=O)c2c1
  VDR inh: -4%
COc1ccc(CCn2c(SCC(=O)Nc3cc(C)on3)nc3ccccc3c2=O)cc1OC
  VDR inh: 2%
COc1ccc(CN2CCN(CCC(C)C)C(CCO)C2)cc1Cn1cncn1 (centres undefined)
  VDR inh: -7%
CCCCC(=O)Nc1cc2nn(-c3ccc(OC)cc3)nc2cc1C
  VDR inh: -14%
O=C1C(=O)N(Cc2ccco2)C(c2cccc(Cl)c2)/C1=C(\O)c1ccc2c(c1)OCCO2 (centres undefined)
  VDR inh: -27%
O=C(NCCCN1CCOCC1)NC1CCCCC1
  VDR inh: -10%
CC1(C)CC2C1CC[C@]1(C)CCC3C(C(=O)O)CC(=O)O[C@]32C1 (some centres undefined)
  VDR inh: -6%
O=C(NC(Cc1c[nH]c2ccccc12)C(=O)O)c1ccc(Br)cc1 (centres undefined)
  VDR inh: 9%

As entered above:
VDR inh result of COC(=O)C1=C(C)NC(=O)/C1=C\c1ccco1 = 7%
VDR inh result of COc1ccc(CN2CCN(CCC(C)C)C(CCO)C2)cc1Cn1cncn1 (centres undefined) = -7%
VDR inh result of COc1ccc(CCn2c(SCC(=O)Nc3cc(C)on3)nc3ccccc3c2=O)cc1OC = 2%
VDR inh result of Cc1csc(NC(=O)CCCc2cccs2)n1 = -8%

Sorted by value in VDR inh (low to high): three of the compounds above.
CC1(C)CC2C1CC[C@]1(C)CCC3C(C(=O)O)CC(=O)O[C@]32C1 (some centres undefined)
  VDR inh: -6%
COC(=O)C1=C(C)NC(=O)/C1=C\c1ccco1
  VDR inh: 7%
O=C(NC(Cc1c[nH]c2ccccc12)C(=O)O)c1ccc(Br)cc1 (centres undefined)
  VDR inh: 9%

Next part.
Cc1ccc(-c2noc(-c3ccccc3NC(=O)C3CC(=O)N(c4cccc(C)c4)C3)n2)cc1 (centres undefined)
  VDR inh: -17%
CC(=O)c1ccc(N2CCN(CC(=O)Nc3ccccc3C(=O)NC3CC3)CC2)c(F)c1
  VDR inh: -4%
CN(C)S(=O)(=O)c1ccc(Nc2ccc(-c3ccc4c(c3)OCCO4)nn2)cc1
  VDR inh: 9%
COc1ccc(S(=O)(=O)N2CCOCC2)cc1OC
  VDR inh: 10%
COc1cc2c(cc1OC)CN(C(=O)/C=C/c1ccccc1[N+](=O)[O-])CC2
  VDR inh: 0%
COC(=O)c1cn(-c2ccccc2)c(=O)c2ccccc12
  VDR inh: -1%
c1ccc2oc(-c3csc(NCC4CCCO4)n3)cc2c1 (centres undefined)
  VDR inh: 79µM*
COc1ccc(C(=O)CN2CCN(c3ccc(F)cc3)CC2)cc1OC
  VDR inh: 1%
O=C(CCN1C(=O)/C(=C/c2ccccc2Cl)SC1=S)N1CCOCC1
  VDR inh: -7%
O=C(Nc1ccc2oc(-c3ccncc3)nc2c1)c1ccccc1F
  VDR inh: 1%
COc1ccc(S(=O)(=O)NCC2CCCN(C(=O)CN3CCCCC3)C2)cc1 (centres undefined)
  VDR inh: -3%
CCCOc1ccc(C(=O)Nc2ccc(S(=O)(=O)N3CCN(C)CC3)cc2)cc1
  VDR inh: -8%
c1ccc(-c2ccnc3ncnn23)nc1
  VDR inh: 0%
O=C(COc1cccc(C(F)(F)F)c1)Nc1nnc(C2CC2)s1
  VDR inh: -12%
Cc1ccc(OC(C)C(=O)Nc2ccc(S(=O)(=O)Nc3cc(C)on3)cc2)cc1 (centres undefined)
  VDR inh: -4%
Cc1cc(NC(=O)NC(=O)c2ccccc2NC(=O)CN(C)C)ccc1Oc1ncc(Br)cn1
  VDR inh: -11%
CCOC(=O)CNC(=O)CNC(=O)c1ccc(OCC(C)C)cc1
  VDR inh: 14%
CCOc1ccc(-n2c(SCC(=O)NC3CCCCC3)nc3c([nH]c4ccccc43)c2=O)cc1
  VDR inh: 11%
NC(=O)c1ccc(NC(=O)CN2CCN(Cc3ccccc3)CC2)cc1
  VDR inh: -13%
COc1ccc(-c2nnc3sc(C4CCCCC4)nn23)cc1OC
  VDR inh: -8%
Cc1cc(=O)oc2cc(OC(=O)c3nn(C(C)C)c(=O)c4ccccc34)ccc12
  VDR inh: -15%
COCCn1c(SCC(=O)OC(C)C)nnc1-c1ccccc1
  VDR inh: -4%
CC(=O)c1ccc(NC(=O)CSc2nnc3ccc(-c4ccc(Cl)cc4)nn23)cc1
  VDR inh: -1%
O=C(NCCc1nc2ccccc2[nH]1)c1ccc(F)cc1
  VDR inh: -3%
CN1CCC(=NNC(=O)C(=O)Nc2ccccc2F)CC1
  VDR inh: -15%

Cc1cccc(NC(=O)Cn2nnc(-c3ccc(CN4CCCC4)cc3)n2)c1C
  VDR inh: -20%
COc1ccc(/C(O)=C2/C(=O)C(=O)N(c3ncccn3)C2c2ccc(OC)cc2)cc1 (centres undefined)
  VDR inh: 2%
COc1ccc(N2CCN(C(=O)CS(=O)(=O)c3cccc4nsnc34)CC2)cc1
  VDR inh: -4%
CN(C(=O)CSc1nc2ccccc2c(=O)n1-c1ccc(F)cc1F)C1CCS(=O)(=O)C1 (centres undefined)
  VDR inh: -10%
CN1C(=O)C(C)(C)c2cc(S(=O)(=O)N3CCCC(C(=O)NCc4ccc(Cl)cc4)C3)ccc21 (centres undefined)
  VDR inh: 3%
Cc1nc2sccn2c(=O)c1S(=O)(=O)Nc1ccc(N2CCN(S(C)(=O)=O)CC2)cc1
  VDR inh: -14%&-27%
CCOc1ccccc1N(CC(=O)Nc1cc(OC)ccc1OC)S(=O)(=O)c1ccccc1
  VDR inh: -5%
COc1ccc(-c2c(C)nn3c(N4CCC(C(=O)N5CCCCC5)CC4)cc(C)nc23)cc1OC
  VDR inh: 17%
COc1cccc(NC(=O)CCCn2c(=O)[nH]c3ccccc3c2=O)c1
  VDR inh: 10%
COc1ccc(CNC(=O)Cc2c(C(=O)O)c(C)cn2C)cc1
  VDR inh: 3%
Cc1ccc([C@H]2C(C(=O)O)=CC[C@@H](c3ccc(Cl)cc3)N2S(=O)(=O)c2ccc(C)cc2)cc1
  VDR inh: -9%
COC(=O)c1sc(N)c(C(=O)OC)c1COC(=O)c1c(C)noc1C
  VDR inh: 1%
Cc1occc1-c1nnc(SCC(=O)Nc2nc(C(C)(C)C)cs2)o1
  VDR inh: 6%
CCc1nnc(NC(=O)c2cccc(S(=O)(=O)N3CC(c4ccccc4)CC3=O)c2)s1 (centres undefined)
  VDR inh: -13%
CC(C)COC(=O)n1c(SCC(N)=O)nc2ccccc21
  VDR inh: 1%
O=C(O)CCn1c(=O)c2cccn2c2cccnc21
  VDR inh: 13%
COc1cc(OC)c(NC(=O)N2CCc3cc(S(=O)(=O)N4CCC(C)CC4)ccc32)cc1Cl
  VDR inh: -7%
CN(C)C(CNC(=O)CCOc1ccccc1)c1ccco1 (centres undefined)
  VDR inh: 10%
CCOc1ccc(N(C(C)=O)C2C=CS(=O)(=O)C2)cc1 (centres undefined)
  VDR inh: 13%
Cc1cc(C#N)c(SCC(N)=O)nc1-c1ccc(F)cc1
  VDR inh: 1%
O=C(CCN1C(=O)NC2(CCCC2)C1=O)Nc1ccc(-c2nc3ccccc3s2)cc1
  VDR inh: -10%
Cc1ccc(OCCNC(=O)c2ccccc2F)cc1
  VDR inh: -6%
CCOC(=O)c1c(C)sc(-c2c(-c3ccc4c(c3)OCCO4)[nH]c3c2c(=O)n(C)c(=O)n3C)c1O
  VDR inh: 7%
COc1ccc(NC(=O)c2cc(C3CC3)nc3c2c(C)nn3-c2ccc(C)cc2)cc1OC
  VDR inh: 17%
Cc1ccc(/C=N/NC(=O)CSc2nnc(-c3ccc(Cl)cc3)n2-c2ccc(Cl)cc2)o1
  VDR inh: -16%

CSc1nc(N)nc(SCC(=O)Nc2cccc(F)c2)c1C#N
  VDR inh: -10%
OCCC1CN(Cc2ccc(-c3ccco3)cc2)CCN1Cc1ccsc1 (centres undefined)
  VDR inh: 5%
O=c1c(-c2cc(O)c(O)c(O)c2)coc2cc(O)c(O)c(O)c12
  VDR inh: 14µM*
O=C(Nc1ccncc1)c1ccc2c(c1)OCCO2
  VDR inh: 4%
Cn1c2ccc(F)cc2c2nnc(NN)nc21
  VDR inh: -2%
CC1CN(C2CCCCC2)c2nc3c(c(=O)[nH]c(=O)n3C)n2C1 (centres undefined)
  VDR inh: 4%
CC(C)(CC(=O)O)CC(=O)N1CCN(c2cc(C(F)(F)F)nc3ccccc23)CC1
  VDR inh: -4%
CCN(CC)CCN(C)Cc1ccc(Br)cc1
  VDR inh: 2%
CS(=O)(=O)c1ccccc1-c1nnc(-c2ccc(Cl)cc2)o1
  VDR inh: 5%
Cc1ccc(S(=O)(=O)CC(=O)Nc2sc3c(c2C(N)=O)CCCC3)cc1
  VDR inh: 8%
Cc1ccc(CNC(=O)CN(c2cc(C)cc(C)c2)S(=O)(=O)c2c(C)[nH]c(=O)[nH]c2=O)cc1
  VDR inh: -29%
O=C(NN=C1CCN(Cc2ccccc2)CC1)c1ccccc1
  VDR inh: -11%
